# Assay outcomes as filed in PubChem.
# RE007 growth inh: less growth of the S. pombe RE007 Vpr strain. S. pombe RE007 Vpr strain, BacTiter-Glo ATP luminescence, 24 h; control for the full effect not named in the record. AID 651644. Potency, µM (doses to about 92.2 µM), for the others: at the highest dose activity change, negative = less growth. 360,000 tested, 0.21% active; active = well fitted falling curve with a large enough effect; inconclusive = small, poorly fitted or top-dose-only effect; inactive = no such curve, though single readings can be large or run the other way;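 also: % is scaled to controls: 0 for no effect and ±100 for the full control effect; nearly all actives have a fitted effect of over 50% in size; the assay follows cell death caused by Vpr and the record does not say whether a fall means rescue or toxicity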
#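 Fission yeast RE007 carrying one integrated HIV-1 vpr copy, seeded at OD 0.01 in PMG+AL medium with 23 nL pinned compound. Grown 24 h at 30 degrees; viability read by BacTiter-Glo luminescence after 5 min.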
# SARS PLpro yeast: SARS-CoV PLP inhibition in yeast | 330,000 tested, 0.19% active | S. cerevisiae expressing SARS-CoV PLpro, growth rescue; control for the full effect not named in the record | Potency, µM (top dose mostly 32.9 µM), for the others: at the top dose activity, positive = growth rescue; active means well fitted rising curve with a large enough effect; inconclusive means small, poorly fitted or top-dose-only effect; inactive means no such curve, though single readings can be large or run the other way; also: 0% is about no effect; nearly all actives have a fitted effect of over 55% in size; growth read by luminescence after 48 h
# Cruzain Triton: cruzain (T. cruzi) inhibition with detergent. P25779. purified cruzain, Z-FR-AMC fluorescence, 0.01% Triton. Potency, µM, inactives show max response, negative = inhibition, usual class: inhibitors. 200,000 tested, 0.43% active. AID 1478;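 also: plate controls were neutral wells for no effect and buffer without enzyme for full effect; nearly all actives have a fitted effect of over 40% in size; top concentration of the series not given in the record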
# Target sequence (P25779 123-467 limits assumed): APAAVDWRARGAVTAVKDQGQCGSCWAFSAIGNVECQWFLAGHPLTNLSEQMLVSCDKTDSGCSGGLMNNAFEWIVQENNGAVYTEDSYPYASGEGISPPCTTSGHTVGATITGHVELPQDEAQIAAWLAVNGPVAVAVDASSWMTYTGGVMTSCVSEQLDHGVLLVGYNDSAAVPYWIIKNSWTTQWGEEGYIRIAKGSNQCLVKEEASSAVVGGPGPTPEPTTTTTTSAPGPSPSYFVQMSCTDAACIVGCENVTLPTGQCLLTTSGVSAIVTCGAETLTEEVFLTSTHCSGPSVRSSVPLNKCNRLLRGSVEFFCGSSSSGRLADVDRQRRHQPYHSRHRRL
#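 Detergent-containing run (0.01% Triton X-100) in acetate buffer pH 5.5 with 5 mM DTT: enzyme at 1.5 nM final, 15 min compound preincubation at room temperature, then 2 uM Z-FR-AMC substrate. Activity taken as 60 s fluorescence increase at 360/450 nm.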
# NS1 inh: blocks influenza NS1 protein function; S. cerevisiae slowed by influenza A NS1, growth recovery by OD600; Potency, µM (doses to about 46.1 µM), for the others: at the highest dose activity, positive = more growth; 270,000 tested, 0.4% active; AID 2326; active means well fitted rising curve with a large enough effect; inconclusive means small, poorly fitted or top-dose-only effect; inactive means no such curve, though single readings can be large or run the other way; also: nearly all actives have a fitted effect of over 50% in size
#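 In this qHTS, NS1 from influenza A is expressed in budding yeast, where it slows growth. Cells are switched from glucose to 2% galactose medium (pH 6.0, -URA), treated with compound, and growth recovery is read at OD600.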
# Marburg entry inh: inhibitors of Marburg virus binding or cell entry. Marburg virus pseudotyped entry inhibition, cell reporter; control for the full effect not named in the record; about a third of the inactives were read at about 46 µM. Potency, µM (top dose mostly 37.8 µM), inactives show at the top dose activity change, negative = inhibition, hits mostly inhibitors. 300,000 tested, 1.8% active. AID 540276; active = well fitted inhibition curve with a large enough effect; inconclusive = small, poorly fitted or top-dose-only effect, or effect the other way; inactive = flat fitted curve, though single readings scatter; tested in HEK293 cells; about a fifth of its hits are not listed in these tables; also: % is scaled to controls: 0 for no effect and ±100 for the full control effect; luciferase read-out
# Lassa entry inh: Lassa virus entry inhibition | Lassa virus pseudotype entry inhibition, cell reporter; control for the full effect not named in the record | Potency, µM (series often up to 37.9 µM), for inactives: top-dose activity change, negative = inhibition, actives largely listed as inhibitors | 300,000 tested, 1.2% active | AID 540256; active means well fitted inhibition curve with a large enough effect; inconclusive means small, poorly fitted or top-dose-only effect, or effect the other way; inactive means flat fitted curve, though single readings scatter; tested in HEK293 cells; also: % is scaled to controls: 0 for no effect and ±100 for the full control effect; nearly all actives have a fitted effect of over 50% in size; luciferase read-out
# Cruzain inh noDet: blocks cruzain activity in detergent-free assay; P25779; purified cruzain, Z-FR-AMC fluorescence, no detergent; Potency, µM, without a hit: max response, negative = inhibition, usual class: inhibitors; 200,000 tested, 2.3% active; AID 1476;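 also: plate controls were enzyme without inhibitor for no effect and buffer without enzyme for full effect; nearly all actives have a fitted effect of over 40% in size; top concentration of the series not given in the record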
#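 Detergent-free condition (0.00005% Triton X-100) in acetate buffer pH 5.5 with DTT. 1.5 nM enzyme and compound were pre-mixed 15 min, then 2 uM Z-FR-AMC substrate added; reaction progress from fluorescence change between first and third reads (60 s).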
# StopGo reporter: FMDV 2A StopGo reporter, luciferase signal. AID 1159524. Potency, µM (titrated, usually from 57.9 µM), for the others: top-dose signal change, negative = less light. human cells with a luciferase reporter of 2A StopGo recoding; control for the full effect not named in the record. 410,000 tested, 1.2% active; active = well fitted falling curve with a large enough effect; inconclusive = small, poorly fitted or top-dose-only effect; inactive = no such curve, though single readings can be large or run the other way; tested in HEK293T cells; also: % is scaled to controls: 0 for no effect and ±100 for the full control effect; nearly all actives have a fitted effect of over 45% in size; luciferase light after 4 h
# Active calls of the source: *; ? = inconclusive; . = no result given; & = joins results of further samples; [ ] = another dose, or the depositor's remark. Unless noted, calls follow the shape of the dose curve; as a rule, active = well fitted curve in the direction sought with a large enough effect; inconclusive = small, poorly fitted or top-dose-only effect, or another doubt; inactive = no such curve, though single readings can be large; an effect the other way counts as inactive or inconclusive. Potency is read from the fitted curve at half-maximal effect.
SMILES,RE007 growth inh,SARS PLpro yeast,Cruzain Triton,NS1 inh,Marburg entry inh,Lassa entry inh,Cruzain inh noDet,StopGo reporter
COc1ccccc1NC(=O)c1ccc(NS(=O)(=O)c2c(C)noc2C)cc1,1%,5%,3.7%,-13%,-6%,?,-12%,10%
O=C(NCc1ccccc1)c1ccc(NC(=O)c2ccco2)cc1,7%,1%,.,2%,8%[46.1 µM],21%[46.1 µM],.,16%
O=C(CSCc1ccc(F)cc1)Nc1ccccc1,-17%,-5%,6.4%,-3%,4%,8%,-4%,57%[activator]
Cc1cc2nn(-c3ccc(F)cc3)nc2cc1NC(=O)c1ccc(OC(C)C)cc1,.,.,0.9%,.,11%[46.1 µM],?,-1%,-8%
CC1CCCN(C(c2ccccc2)c2sc3ncnn3c2O)C1 (centres undefined),8%,0%,.,-6%,.,.,.,12%
Clc1ccc(CO/N=C2\CCCc3nonc32)cc1,-16%,6%,-3.6%,23%,?,?,-7%,53%[activator]
O=C(C[n+]1ccc(C(=O)N/N=C/c2ccc(OCc3ccccc3)cc2)cc1)c1ccccc1,-3%,-6%,-23%,-124%,?,3%,?,.
COC(=O)C1C(=O)C(C(=O)c2ccc([N+](=O)[O-])cc2)C(=O)CC1(C)C (centres undefined),2%,3%,.,14%,.,.,.,-13%
Cc1cc(Nc2cccc(Cl)c2)n2ncnc2n1,-18%,7%,1.0%,-15%,-3%,4%,3%,-15%
Cc1ccc(N2CCN(Cc3nnc(-c4ccc5c(c4)OCO5)o3)CC2)c(C)c1,.,.,0.3%,.,1%[46.1 µM],11%[46.1 µM],10%,-9%
O=C(Nc1nc(=O)[nH]s1)c1ccccc1,3%,1%,.,.,-10%[46.1 µM],1%,.,10%
COc1cccc(C2c3[nH]c4ccccc4c3C[C@H]3C(=O)N(C4CC4)CC(=O)N23)c1 (some centres undefined),-6%,-1%,.,3%,.,.,.,35%[activator]
O=C(COC(=O)c1ccc2c(c1)OCCO2)NCCc1ccccc1,6%,-1%,.,.,1%,-3%,.,18%
O=C(Nc1nc(-c2ccncc2)cs1)C1c2ccccc2Oc2ccccc21,0%,-16%,-9.5%,-15%,?,-1%,?,?
CCOC(=O)Cn1nc(C)c2c1CCCC2=O,-5%,3%,2.1%,2%,?,16%,1%,23%
CCN(CCO)Cc1cn[nH]c1-c1ccc(C)c(C)c1,3%,8%,2.6%,?,-8%,-13%,-2%,5%
O=C(c1ccc(-c2ccccc2)c(F)c1)C1CCCN(C(=O)c2cncs2)C1 (centres undefined),12%,-11%,.,-53%,-9%[46.1 µM],?,.,?
COc1cc(-c2nc3n(n2)C(c2ccncc2)C2=C(CCCC2=O)N3)cc(OC)c1OC (centres undefined),26%,1%,.,.,-11%[46.1 µM],.,.,-7%
CCCCNC(=O)CCCn1c(=S)[nH]c2cc3c(cc2c1=O)OCO3,6%,8%,-1.0%,?,10%,-6%,-10%,-20%
COc1ccccc1OC(C)C(=O)Nc1ccccc1C(=O)NCc1cccnc1 (centres undefined),-5%,2%,.,-2%,6%[46.1 µM],.,.,1%
O=C(Nc1c(F)cc(F)cc1Br)c1cc2nc(C(F)F)cc(C(F)F)n2n1,-10%,-11%,-0.9%,14%,7%[46.1 µM],-1%,-9%,-32%
CCOc1ccc(N/C=C/C(=O)c2ccc(OC)c(OC)c2)cc1,-16%,-2%,.,-1%,.,.,.,84%[activator]
O=c1ccnc(SCCc2ccccc2)[nH]1,9%,1%,.,-12%,.,.,.,13%
CC(=O)Nc1ccc(OCc2cnc(Cl)s2)cc1,24%,0%,.,1%,17%[46.1 µM],.,.,36%[activator]
Cc1c(C(=O)N2CCCC2)sc(NC(=O)c2cccc(Cl)c2)c1C#N,-7%,4%,-13%,10%,-28%,-27%,4%,.
# Going on with the list.
SMILES,RE007 growth inh,SARS PLpro yeast,Cruzain Triton,NS1 inh,Marburg entry inh,Lassa entry inh,Cruzain inh noDet,StopGo reporter
C/C(=N/NC(=O)c1cc(-c2cccc([N+](=O)[O-])c2)n[nH]1)c1cccc(O)c1,7%,1%,.,2%,.,.,.,-18%
NC(=O)NC(CC(=O)NCCCc1ccccc1)c1ccccc1Cl (centres undefined),?,3%,.,.,?,-20%,.,-1%
Cc1ccc(S(=O)(=O)N(C)C)cc1NC(=O)COC(=O)C1CC(=O)N(c2ccc3c(c2)OCCO3)C1 (centres undefined),11%,1%,.,.,0%,-2%,.,-8%
COc1cccc(NC(=O)c2csc3c2CCCCC3)c1,.,.,-7.8%,.,?,.,-6%,22%
O=C(Cc1cn2ccsc2n1)Nc1cccc2cnccc12,0%,3%,?,-11%,3%,9%,13µM*,-4%
COc1ccc2c([N+](=O)[O-])c(N3CCCC3)[nH]c2c1,0%,-4%,.,-3%,-2%,-10%,.,36%[activator]
CC(=O)c1cccc(S(=O)(=O)N2CCN(c3ccccc3F)CC2)c1,-12%,10%,-5.5%,.,-2%&-2%[46.1 µM],-29%[46.1 µM],-6%,-25%&-26%
O=C(Nc1cccc2ccccc12)/C(=C/c1cccc([N+](=O)[O-])c1)NC(=O)c1cccs1,2%,13%,-3.4%,2%,?,-14%,?,1%
COc1ccc(OC)c(NC(=O)CSc2nc3ccccc3c(=O)n2CCNC(C)=O)c1,-11%[3.69 µM],-1%,-4.1%,-24%,-1%,-14%,?,-16%
Cc1ccc(-c2nn(-c3ccccn3)c(=O)c3ccccc23)cc1C,2%,0%,.,-4%,.,.,.,-21%
c1ccc(-n2nnnc2NC2CCCCC2)cc1,18%,7%,3.1%,14%,-14%,6%,-11%,45%[activator]
O=C(COC(=O)c1cccnc1)c1ccc(Cl)c(Cl)c1,-22%,-5%,-1.9%,0%,1%,?,6%,6%
C=CCC1CCCCC12NC(=O)N(c1ccccc1)N2 (centres undefined),16%,1%,.,2%,?,-25%,.,-1%
CC(=O)c1ccc(NC(=O)CCc2nc3sc4c(c3c(=O)[nH]2)CCCC4)cc1,-9%,-2%,.,.,5%,1%,.,-1%
CN(C)S(=O)(=O)c1cccc(NC(=O)c2ccc(S(=O)(=O)N3CCCC3)cc2)c1,-4%,-3%,.,.,0%,1%,.,0%
COc1ccc(NC(=O)CN2CCC(C(N)=O)CC2)cc1,-2%,2%,-6.0%,-8%,?,?,-12%,5%
COc1ccccc1N1CCN(C(=O)c2cc(S(=O)(=O)N3CCOCC3)ccc2C)CC1,-1%,-2%,.,.,-28%,-11%,.,0%
CC(C)n1c(O)c(C2c3cc(Cl)ccc3Oc3[nH]c(=O)n(C(C)C)c(=O)c32)c(=O)[nH]c1=O (centres undefined),?,-7%,.,-79%,?,?,.,3.5µM*
CC1(C)Cc2cccc(OCC(=O)N3CCN(c4ccccc4)CC3)c2O1,6%,?,-1.1%,-7%,-20%,14%,9%,-6%
COc1cccc(-n2c(SCc3ccc(F)cc3)nc3c([nH]c4ccccc43)c2=O)c1,.,.,-1.0%,.,.,?,10µM*,0%
COc1cccc(SCC2CSc3nc4ccccc4c(=O)n32)c1 (centres undefined),4%,1%,.,0%,-18%[46.1 µM],-11%[46.1 µM],.,-4%
CCOC(=O)CN(C(=O)CSc1nnnn1C)c1ccccc1,-5%,2%,.,.,10%[46.1 µM],-17%[46.1 µM],.,3%
CC(C)c1ccc(C(=O)NCCCNC(=O)c2cnccn2)cc1,13%,-10%,.,9%,0%[46.1 µM],8%[46.1 µM],.,-3%
CCCc1c(C)c(C#N)c2nc3ccccc3n2c1NCCCN1CCOCC1,7%,-1%,-0.2%,8%,-2%,10%,0%,-18%
CCOC(=O)c1cnc2ccc(OCC)cc2c1N1CCN(c2ccccc2OC)CC1,11%,-33%,-4.7%,3%,?,?,?,?
# The listing continues:
SMILES,RE007 growth inh,SARS PLpro yeast,Cruzain Triton,NS1 inh,Marburg entry inh,Lassa entry inh,Cruzain inh noDet,StopGo reporter
O=C(Cn1ncc2c3ccccc3n(Cc3cccc(Cl)c3)c2c1=O)N1CCCCC1,.,.,-7.1%,.,?,-28%[46.1 µM],3%,-20%
Cc1ccc(NC(=O)Nc2ccccc2C(=O)NCc2ccccc2)cc1,-2%,6%,-7.4%,-3%,?,7%,2%,35%[activator]
COC(=O)c1ccc(NC(=O)CCn2cnnn2)c(C)c1,.,.,-0.5%,.,3%[46.1 µM],-2%[46.1 µM],-6%,-13%
COc1ccccc1CNc1nc2nc(C)cc(=O)n2[nH]1,-2%,-2%,1.2%,-6%,23%,9%,-15%,-2%
Cc1ccc(NC(=O)c2oc3ccc(S(=O)(=O)N4CCOCC4)cc3c2C)c(C)c1,-6%,3%,0.2%,.,-8%&-8%[46.1 µM],?,-6%,-6%&-23%
CCC(=O)N1c2ccc(S(=O)(=O)NCCc3ccccc3)cc2CC1C (centres undefined),-3%,?,-3.8%,-8%,-2%&-2%[46.1 µM],-13%[46.1 µM],-7%,22%&41%
O=C(Nc1cccc(F)c1)c1ccc2c(c1)OCO2,-27%,-28%,4.9%,-19%,?,-3%,8%,12%
CC(=O)c1cccc(S(=O)(=O)N2CCC(c3nc4ccccc4[nH]3)CC2)c1,-12%,-2%,.,-9%,-3%[46.1 µM],.,.,?

# Given bar-delimited: entries from further up.
smiles | RE007 growth inh | SARS PLpro yeast | Cruzain Triton | NS1 inh | Marburg entry inh | Lassa entry inh | Cruzain inh noDet | StopGo reporter
CC(=O)c1cccc(S(=O)(=O)N2CCC(c3nc4ccccc4[nH]3)CC2)c1 | -12% | -2% | . | -9% | -3%[46.1 µM] | . | . | ?
O=C(Nc1cccc(F)c1)c1ccc2c(c1)OCO2 | -27% | -28% | 4.9% | -19% | ? | -3% | 8% | 12%
COc1ccccc1CNc1nc2nc(C)cc(=O)n2[nH]1 | -2% | -2% | 1.2% | -6% | 23% | 9% | -15% | -2%
Cc1ccc(NC(=O)Nc2ccccc2C(=O)NCc2ccccc2)cc1 | -2% | 6% | -7.4% | -3% | ? | 7% | 2% | 35%[activator]
Cc1ccc(NC(=O)c2oc3ccc(S(=O)(=O)N4CCOCC4)cc3c2C)c(C)c1 | -6% | 3% | 0.2% | . | -8%&-8%[46.1 µM] | ? | -6% | -6%&-23%

# Compounds were not picked by outcome; any-hit rate near 4.7%.
